Compound activity deposited in PubChem by several laboratories.
RanGTP-Impb inh: disruptors of Ran-importin-beta complex formation – biochemical, FRET, CFP-Ran, YFP-importin-beta, homogeneous, primary screen; cell-free CFP-Ran/YFP-importin-beta FRET ratio; inhibition, % (concentration not given with the values); 1.1% of 300,000 active;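 active means most replicates above 15%; inconclusive means exactly half above 15%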;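 further: 0% = DMSO wells and 100% = Ran loaded with GDP instead of GTP; wells of about 40 µL received 100 nL stock; the first replicate is given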
B2AR ag: activates human beta-2 adrenergic receptor causing internalization | P07550 | Am2.2-beta2AR cells, FAP receptor internalization, flow cytometry; reference of the scale not given here | response, % (no concentration beside the values) | 0.43% of 340,000 active | AID 504454;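 active means response above a set limit, near 3 SD of response in nonfluorescent compounds, cut at about 42% in these data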;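 further: stock transfer was 100 nL into about 11 µL; a reference agonist was the positive control; negative values mostly stem from fluorescent compounds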
HNF4A DNA FP: change in binding of human HNF4 alpha to DNA; P41235; HNF4a-FITC DNA binding, fluorescence polarization, 1 h; activity change, % at 10 µM; 0.3% of 360,000 active; AID 1224865; in the data active means activity change above about 30%, passing the limit was not always enough;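 further: controls were the assay level and a saturating level of protein; the project sought stronger binding though the title names inhibitors; some compounds called inactive have numbers as strong as hits; positive values seem to mean higher polarization but the record does not say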
LANA-H2B inh: blocks KSHV LANA binding to histone H2A/H2B | Q9QR71 | cell-free LANA-H2A/H2B peptide, fluorescence polarization | inhibition, % (no concentration beside the values) | 0.6% of 320,000 active | AID 2629; in the data active means inhibition mostly above about 10%, no sharp cut-off; inactive means mostly below about 6.7%;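 further: stock transfer was 7.5 nL into about 10 µL; 0% = median of vehicle wells and 100% = median of positive control wells; one replicate is shown; the record names a cut of 25% in any replicate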
Target sequence (Q9QR71 whole entry, looked up): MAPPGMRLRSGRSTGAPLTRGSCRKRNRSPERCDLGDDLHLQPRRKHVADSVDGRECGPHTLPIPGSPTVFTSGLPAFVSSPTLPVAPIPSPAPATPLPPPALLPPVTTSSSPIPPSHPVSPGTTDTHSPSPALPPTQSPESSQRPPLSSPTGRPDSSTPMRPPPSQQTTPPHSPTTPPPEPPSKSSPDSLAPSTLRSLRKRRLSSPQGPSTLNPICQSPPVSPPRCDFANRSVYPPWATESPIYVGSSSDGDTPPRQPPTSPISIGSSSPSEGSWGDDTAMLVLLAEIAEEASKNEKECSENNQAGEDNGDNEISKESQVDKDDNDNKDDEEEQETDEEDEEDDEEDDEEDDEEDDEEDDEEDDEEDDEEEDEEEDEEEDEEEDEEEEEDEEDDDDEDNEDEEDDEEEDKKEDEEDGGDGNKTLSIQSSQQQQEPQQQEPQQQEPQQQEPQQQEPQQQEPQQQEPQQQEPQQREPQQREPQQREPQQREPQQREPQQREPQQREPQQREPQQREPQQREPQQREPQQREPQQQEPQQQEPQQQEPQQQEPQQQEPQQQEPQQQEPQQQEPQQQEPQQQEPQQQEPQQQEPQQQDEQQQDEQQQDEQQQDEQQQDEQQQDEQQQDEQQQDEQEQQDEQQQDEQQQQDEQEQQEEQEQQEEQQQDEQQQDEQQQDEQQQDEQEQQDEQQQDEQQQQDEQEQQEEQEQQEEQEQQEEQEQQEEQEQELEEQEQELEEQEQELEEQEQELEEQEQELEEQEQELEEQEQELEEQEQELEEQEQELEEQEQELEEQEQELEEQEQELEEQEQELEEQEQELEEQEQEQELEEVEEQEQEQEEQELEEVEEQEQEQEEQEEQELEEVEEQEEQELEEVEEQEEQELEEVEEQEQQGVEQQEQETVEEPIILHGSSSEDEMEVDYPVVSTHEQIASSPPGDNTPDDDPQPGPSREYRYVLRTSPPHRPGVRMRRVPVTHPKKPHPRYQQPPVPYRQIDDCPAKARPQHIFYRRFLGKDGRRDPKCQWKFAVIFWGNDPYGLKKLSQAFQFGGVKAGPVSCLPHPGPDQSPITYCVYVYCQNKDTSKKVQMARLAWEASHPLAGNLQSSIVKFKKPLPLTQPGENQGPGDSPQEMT
ALR H2O2 inh: inhibitors of human sulfhydryl oxidase ALR. P55789. purified ALR, DTT oxidation, H2O2 HRP-luminol luminescence. inhibition, % (no concentration beside the values). 3.8% of 290,000 active. AID 485317;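 active means mean and each replicate at 75% or more; inconclusive means only one of the two met; inactive means neither met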;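 further: stock transfer was 7.5 nL into about 7.5 µL; 0% = neutral wells and 100% = wells with inactivated enzyme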
Vif A3G: HIV-1 Vif–A3G interaction blockers – biochemical, TR-FRET, GST-Vif 1-94, biotin-A3G peptide, dose response retest, primary screen (AID 1117319); inhibition, %, or IC50 in µM where a hit was titrated; 0.57% of 260,000 active; TR-FRET GST-Vif / biotin-A3G peptide binding; higher % means a stronger effect; test concentration not given here; strong numbers were not always called active;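 active means above the screen mean plus three standard deviations and confirmed in dose response; inconclusive means results disagree or hit not tested in dose response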;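 further: Vif residues 1-94 fused to GST binding biotinylated APOBEC3G peptide 110-148; 0% = full assay without inhibitor and 100% = GST in place of GST-Vif; retest series ran down from 100 µM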
Calb FLC: C. albicans growth modulation with fluconazole | C. albicans CaCi-2 (fluconazole-resistant clinical isolate) + fluconazole, Alamar Blue growth, 48 h | growth inhibition, % (no concentration beside the values) | 0.57% of 300,000 active | AID 1979;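 active means most replicates above 75%; inconclusive means exactly half above 75%; inactive means most below 75%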;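 further: all wells also contain fluconazole at 8 µg/ml as a sub-toxic cotreatment; 0% = median of DMSO wells and 100% = median of geldanamycin control wells; wells of about 8 µL received 7.5 nL stock; the first replicate is given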
* hit, by the source's call; ? = inconclusive; nt = not tested or not shown.

SMILES | RanGTP-Impb inh | B2AR ag | HNF4A DNA FP | LANA-H2B inh | ALR H2O2 inh | Vif A3G | Calb FLC
O=C(CCN1CCCCC1)Nc1cccc(Cl)c1 | 13 | 4 | -2.7 | -0.2 | -13 | 3% | -25
CCCNC(=O)COC(=O)c1n[nH]c2ccccc12 | 1.8 | -1 | 2.8 | -3.7 | -7 | 2% | -7
O=C(Cn1cc(C(F)(F)F)ccc1=O)N/N=C/c1ccccc1O | 1.4 | 3 | -3.0 | 1.2 | 14 | -4% | -3
COC(=O)COc1ccc2c(=O)c(-c3ccccc3OC)coc2c1 | 1.9 | 3 | 0.9 | -7.6 | 5 | 2% | 35
O=C(O)c1cccc(S(=O)(=O)Nc2cc(Cl)ccc2Cl)c1 | 5.5 | 18 | -0.5 | 1.6 | -2 | 6% | 2
Cc1cccc(NCc2cc(Cl)cc(Cl)c2O)n1 | -0.7 | 5 | 3.7 | -5.2 | 44 | -4% | 3
CC(Sc1ccc(S(=O)(=O)N2CCN(C)CC2)cn1)C(=O)NC1(C#N)CCCCC1 (centres undefined) | nt | 1 | 4.0 | nt | nt | 1% | nt
CCOc1ccc(/C(O)=C2\C(=O)C(=O)N(c3ccc(OC)cc3)C2c2ccccc2[N+](=O)[O-])cc1 (centres undefined) | -1.0 | 11 | 4.3 | 2.0 | -25 | 17% | -3
CC(=O)c1ccc(Nc2ncnc3c2oc2ccccc23)cc1 | 0.1 | 1 | -0.1 | 2.1 | -19 | -12% | 2
CCOC(=O)C1=C(c2ccccc2)N(C)C(=O)NC1c1ccc(OC(F)F)c(OC)c1 (centres undefined) | 2.0 | -11 | -0.9 | -1.6 | -1 | 4% | -16
Cc1cc(C)cc(Oc2ccc(C(F)(F)F)cc2C#N)c1 | 3.4 | -3 | 0.5 | 3.4 | 5 | 3% | -3
COc1cc(SC)ccc1C(=O)N1CCN(Cc2ccc3c(c2)OCO3)CC1 | 0.1 | 0 | 3.0 | -3.1 | -5 | nt | -13
Cc1ccc(SCC(=O)O/N=C(\N)c2cccnc2)cc1 | 2.2 | 4 | 2.4 | -0.4 | 0 | -12% | -9
O=C(COc1ccc(S(=O)(=O)N2CCCC2)cc1)N1CCCC1 | -0.2 | -6 | 1.8 | 1.9 | -3 | nt | -14
CCCCN(C(=O)c1cc2ccccc2o1)c1c(N)n(CC(C)C)c(=O)[nH]c1=O | 0.2 | 0 | -0.3 | 0.4 | 0 | nt | 1
CC(C)c1ccc(-n2nnnc2SCC(=O)NC2CC2)cc1 | nt | -11 | -6.0 | -1.4 | 11 | nt | nt
COc1ccc(Nc2ncccc2C(=O)NCc2ccccc2)cc1 | 2.7 | -1 | 5.4 | -4.4 | 32 | -3% | -2
O=C(CC1C(=O)OCC2CCCCN21)Nc1ccccc1C(F)(F)F (centres undefined) | 0.5 | -5 | -0.9 | -0.3 | -3 | -5% | 6
COc1ccc(-c2noc(=O)n2Cc2ccccc2F)cc1 | -1.2 | -2 | -3.5 | -1.6 | -23 | -1% | 4
COc1ccc(Nc2ncnc3c2cnn3-c2ccccc2)cc1OC | ? | 3 | -2.1 | 1.3 | -3 | 3% | 1
O=C(NC1CCCC1)c1cccc2c1C(=O)c1ccc(/C=C/c3ccccc3)cc1S2(=O)=O | nt | 4 | 9.9 | 4.5 | -9 | nt | nt
O=[N+]([O-])c1cccnc1Oc1ccc(F)cc1F | 2.9 | -1 | 2.8 | 5.5 | -1 | 0% | -13
C=CCn1c(CSc2nnc(-c3ccccc3)n2C)n[nH]c1=S | 6.0 | -1 | 0.2 | 5.1 | 83* | nt | -1
CCOc1ccc(-c2cc(C(=O)NCCCN3CCCC3)c3ccccc3n2)cc1 | 4.5 | -1 | -2.5 | -1.7 | -8 | nt | -1
C[C@]12C(=O)N(c3cccc(F)c3)C(=O)N1[C@@H]1c3ccccc3OC[C@@H]1[C@H]2c1ccccc1 | 4.7 | -3 | -4.7 | -0.5 | -4 | nt | 14
The list continues.
SMILES | RanGTP-Impb inh | B2AR ag | HNF4A DNA FP | LANA-H2B inh | ALR H2O2 inh | Vif A3G | Calb FLC
FC(F)Sc1ccc(-n2c(-c3ccc(Cl)cc3)c[n+]3c2CCC3)cc1 | 2.1 | -8 | 1.7 | -5.4 | -12 | -8% | -12
CCc1cccc2c(C(=O)COC(=O)c3nccnc3N)c[nH]c12 | nt | 8 | 13 | 7.5 | 37 | nt | 1
CC(=O)NCc1nc2ccccc2n1Cc1ccccc1C | ? | 8 | -1.4 | 2.4 | -8 | -4% | 0
CC(C)COC(=O)NC1c2ccccc2Oc2ccccc21 | 2.5 | 4 | 1.1 | 3.5 | -11 | 5% | -1
O=C(O)C(Cc1ccc(F)cc1)c1ccccc1 (centres undefined) | -1.3 | -8 | 0.6 | 3.3 | -7 | nt | -3
N#Cc1ccc(C23CC4(C2)[C@H](CN(CC2CCCCC2)[C@@H]4c2ccccc2)C3c2ccc(C(F)(F)F)cc2)cc1 (some centres undefined) | 7.6 | nt | nt | nt | nt | 25% | 4
Cn1c(NCCc2ccccc2)cc(=O)n(C)c1=O | 2.8 | -4 | -8.5 | -1.3 | -15 | 15% | -10
CC(C)(CO)C(O)C(=O)NCCC#N (centres undefined) | ? | 4 | -4.7 | 2.0 | 0 | 6% | -1
COc1ccc2cc(/C=C/C(=O)N3CCN(CC(=O)N4CCCCCC4)CC3)ccc2c1 | -0.8 | 5 | -3.8 | 2.2 | -26 | nt | 3
O=C(OCCc1ccccc1)c1cc(O)c(O)c(O)c1 | -0.1 | 11 | -0.8 | 6.5 | 99* | nt | -8
Cc1ccc(N(C(=O)C(F)(F)F)C(C(=O)NC2CCCCC2)c2cccs2)cc1C (centres undefined) | -1.9 | 4 | -0.2 | 0.7 | 0 | -5% | 1
C=CCNC(=O)Nc1ccc2oc(C)nc2c1 | ? | -1 | -2.9 | 7.8 | -12 | ? | -13
CC(=O)NC(Cc1ccccc1)Cc1ccccc1 | -2.2 | 0 | -4.1 | 5.8 | -7 | 1% | -6
CCCCCNC(=O)C(=O)C1C(=O)Nc2ccccc21 (centres undefined) | -2.8 | -2 | 4.7 | 1.1 | nt | 10% | -1
Cc1ccc(C2NC(=O)c3sc(=S)n(-c4ccccc4)c3N2)cc1 (centres undefined) | -5.3 | 8 | 2.0 | -5.0 | 65 | nt | 29
O=C(NC1(C(F)(F)F)NC(=O)N(Cc2ccccc2)C1=O)c1cccs1 (centres undefined) | -0.9 | -2 | -2.5 | -1.9 | 12 | 0% | -4
Cc1c(Br)c([N+](=O)[O-])nn1CC(=O)N1CCN(C23CC4CC(CC(C4)C2)C3)CC1 | 2.7 | 1 | -0.2 | 0.2 | 0 | -1% | -3
Cc1cccc(-c2ccc3c(c2)C2CC3CCN2C(=O)OCc2ccccc2)c1 (centres undefined) | nt | 0 | -0.7 | nt | nt | -4% | nt
N#C/C(=C(/O)CCl)c1nnc2n1CCCCC2 | 0.0 | 0 | -0.6 | 1.4 | 6 | nt | -16
Cc1ccc(NC(=O)/C(=C\c2cccnc2)NC(=O)c2ccccc2)cc1 | 1.9 | 1 | -0.4 | -2.4 | -1 | 0% | 0
CC(=O)N1CCN(c2ccc(NC(=O)c3cccc(Cl)c3Cl)cc2)CC1 | -1.0 | -1 | -1.7 | -0.7 | 25 | 4% | -3
O=[N+]([O-])c1ccc(/C=C/c2ccc3cccc([N+](=O)[O-])c3n2)cc1 | -3.7 | 3 | -2.6 | -0.6 | nt | 2% | 0
COc1cc2c(C(=O)NCCCOC(C)C)cn(CC(C)C)c(=O)c2cc1OC | -4.9 | -10 | 2.0 | -4.8 | -4 | -8% | -2
COc1ccc(-c2cccc(C(=O)Nc3ccc(OC)c(OC)c3)c2)cc1 | 9.9 | 5 | 1.2 | 1.4 | -8 | -8% | 0
O=c1c2ccccc2nc(/C=C/c2ccc([N+](=O)[O-])o2)n1CCCO | -3.4 | -433 | 74* | -2.1 | -3 | 29% | 108*

Shown as a markdown table: part of the list above
| SMILES | RanGTP-Impb inh | B2AR ag | HNF4A DNA FP | LANA-H2B inh | ALR H2O2 inh | Vif A3G | Calb FLC |
| --- | --- | --- | --- | --- | --- | --- | --- |
| COc1ccc2cc(/C=C/C(=O)N3CCN(CC(=O)N4CCCCCC4)CC3)ccc2c1 | -0.8 | 5 | -3.8 | 2.2 | -26 | nt | 3 |
| O=C(OCCc1ccccc1)c1cc(O)c(O)c(O)c1 | -0.1 | 11 | -0.8 | 6.5 | 99* | nt | -8 |

(further entries)
SMILES | RanGTP-Impb inh | B2AR ag | HNF4A DNA FP | LANA-H2B inh | ALR H2O2 inh | Vif A3G | Calb FLC
O=C(COC(=O)CNC(=O)c1ccccc1F)NC1CC1 | nt | 7 | -1.5 | 1.9 | 2 | nt | nt
CCOC(=O)C1=CNS(=O)(=O)NC1c1ccc(Br)cc1F (centres undefined) | nt | 2 | 0.6 | nt | nt | -2% | nt
Cc1nc(SCC(=O)NCCc2ccccc2)nc(C)c1C | -1.1 | 2 | -1.3 | -4.6 | -12 | 3% | -2
O=C(NNC(=O)c1cc2cc3ccccc3nc2s1)c1ccc(F)cc1 | -1.3 | 8 | -3.0 | -5.7 | -5 | ? | 43
Cc1cc(C)c2nc(SCC(=O)Nc3cc(C)on3)c(C)cc2c1 | -0.8 | 8 | 0.5 | -1.8 | 9 | nt | -41
Cc1ccc(S(=O)(=O)NCCC(=O)OCC(=O)NCCc2ccccc2)cc1C | 3.9 | -6 | 3.0 | -4.0 | -2 | 0% | 10
CCN(CC(=O)NC1CCCC1)S(=O)(=O)c1ccc(F)cc1 | 1.6 | -1 | 3.1 | 5.3 | 8 | nt | -7
CCOc1ccc(CC(=O)N/N=C(\C)c2cccnc2)cc1 | -1.5 | -6 | -0.1 | -0.4 | -11 | nt | -1
Fc1ccc(-c2c[nH]c(=S)n2Cc2ccccc2)cc1 | ? | 4 | 0.7 | 3.0 | 8 | nt | ?
Cc1ccc2nc(Cl)c(C3CC(c4cccs4)=NN3C(=O)CCCC(=O)O)cc2c1 (centres undefined) | -1.2 | -16 | 1.6 | -0.1 | 15 | nt | 28
CC(C)c1ccc(C2=NN(c3ccccc3)C(=O)CC2)cc1 | 2.4 | -1 | -0.6 | 0.0 | -1 | nt | -13
CN(C)c1ccc(N=Nc2ccccc2C(=O)OCC(=O)N2CCCC2)cc1 | -3.3 | 7 | 7.3 | -3.4 | nt | 6% | 0
CCCOc1ccc(CN(C(=O)c2cccc(OC)c2)C2CCS(=O)(=O)C2)cc1 (centres undefined) | 9.6 | 1 | -1.0 | -3.1 | -4 | nt | 1
Cc1ccc(OCC(=O)NNC(=O)c2ccc3c(=O)n4c(nc3c2)CCC4)cc1 | 2.5 | 12 | -4.7 | -2.5 | nt | 4% | 0
CC(C)CN1CN(Cc2ccccc2)CNC1=S | 2.7 | -10 | 1.6 | -0.1 | -8 | ? | -5
CC1CCCCN1CC(=O)Nc1ccc2c(c1)OC(F)(F)O2 (centres undefined) | 0.5 | -2 | 0.3 | -1.6 | 2 | 0% | -7
S=C(Nc1cccc(Br)c1)c1ccccc1 | -1.9 | 1 | 1.8 | 1.0 | 8 | nt | 1
O=C(c1ccc([N+](=O)[O-])cc1[N+](=O)[O-])n1cnc2ccccc21 | 0.6 | 14 | -1.8 | -5.2 | -29 | 8% | 14
O=C(Nc1ccccc1)c1ccc(S(=O)(=O)N2CCOCC2)cc1 | 4.4 | -5 | 14 | 7.8 | nt | 0% | -11
Cc1cccc(C(=O)N2CCCC(c3nc(-c4ccc(C)o4)no3)C2)c1 (centres undefined) | 0.3 | 5 | 2.1 | -8.2 | 0 | 1% | -5
Nc1nc(Cl)cc(=O)n1Cc1ccc(Cl)cc1 | 4.6 | 2 | 3.1 | 3.0 | -9 | nt | 0
CC(=O)NS(=O)(=O)c1ccc(NC(=S)Nc2ccccc2)cc1 | -2.0 | 1 | 1.3 | 9.0 | 14 | nt | -42
O=C1C(=O)c2ccccc2C(O)=C1CCCCl | -0.6 | 0 | 4.3 | 1.8 | 2 | nt | 4
